Screening data (PubChem)
miR-21 FLuc – miR-21 reporter, rising signal; HeLa miR-21 FLuc reporter, luciferase, 48 h; AID 2288; 340,000 tested, under 10 active; Potency, µM (highest dose often 38.3 µM), without a hit: at the top dose reporter change, positive = more light; active = well fitted rising curve with a large enough effect; inconclusive = small, poorly fitted or top-dose-only effect; inactive = no such curve, though single readings can be large or run the other way;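 also: % of control where 0% means no effect; miR-21 action dims this reporter so a rising signal means less miR-21 action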
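HeLa miR-21-FLuc reporter line, endogenous miR-21; 2000 cells/well in DMEM/10% FBS; compound titration up to ~40uM final, 48 h, 37 degree Celsius; luciferase detection reagent, 15 min lysis, CCD luminescence.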
Rango dissoc inh – prevents RanGTP from dissociating the Rango-importin beta complex; O95149+P62826; Biochemical FRET Rango-importin beta, RanGTP-induced dissociation; Potency, µM (titrated, usually from 46.1 µM), for inactives: at the highest dose activity change, negative = inhibition; 340,000 tested, 0.071% active; active means falling FRET ratio curve, often poorly fitted, with flat reads before Ran was added; inconclusive means other falling curves, or compound fluorescence or quenching; inactive means flat or rising ratio curve;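 also: potency is read from the fitted curve at half-maximal effect; % of control where 0% means no effect; nearly all actives have a fitted effect of over 45% in size; -100% = wells without RanGTP and RCC1; the record marks most hits as doubtful in a second field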
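Two FRET readings bracket the reaction: one 5 min after compound meets Rango–importin beta, another 45 min after RanGTP-RCC1 (0.6 uM Ran, 0.2 uM RCC1, 2 mM GTP) is added. Only the second defines inhibition.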
GLA inh pH 4.5 – alpha-galactosidase A (human) inhibition, pH 4.5 | P06280 | purified enzyme, 4-MU-alpha-Gal fluorescence, pH 4.5 | activity change, negative = inhibition, % at 105 µM | 230,000 tested, under 10 active; inconclusive = small, poorly fitted or top-dose-only inhibition, or a rising curve; inactive = flat fitted curve, though single readings scatter; no compound was filed as active;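 also: 0% = full activity with enzyme and -100% = basal without enzyme; dose as in the result columns while the protocol names 77 µM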
Rango complex inh – Rango-importin beta binding inhibition; AID 540263; Q14974; Rango CFP/YFP FRET sensor + importin beta, 45 min; 340,000 tested, 0.031% active; Potency, µM (top dose mostly 92.2 µM), for inactives: at the top dose inhibition of complex formation; active = rising FRET ratio curve, often small or poorly fitted; inconclusive = mostly compound fluorescence or quenching in the first reads; inactive = flat curves in all reads;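 also: potency is read from the fitted curve at half-maximal effect; 0% = DMSO wells and 100% = buffer wells lacking importin beta; nearly all actives have a fitted effect of over 15% in size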
Target sequence (Q14974 whole entry, looked up): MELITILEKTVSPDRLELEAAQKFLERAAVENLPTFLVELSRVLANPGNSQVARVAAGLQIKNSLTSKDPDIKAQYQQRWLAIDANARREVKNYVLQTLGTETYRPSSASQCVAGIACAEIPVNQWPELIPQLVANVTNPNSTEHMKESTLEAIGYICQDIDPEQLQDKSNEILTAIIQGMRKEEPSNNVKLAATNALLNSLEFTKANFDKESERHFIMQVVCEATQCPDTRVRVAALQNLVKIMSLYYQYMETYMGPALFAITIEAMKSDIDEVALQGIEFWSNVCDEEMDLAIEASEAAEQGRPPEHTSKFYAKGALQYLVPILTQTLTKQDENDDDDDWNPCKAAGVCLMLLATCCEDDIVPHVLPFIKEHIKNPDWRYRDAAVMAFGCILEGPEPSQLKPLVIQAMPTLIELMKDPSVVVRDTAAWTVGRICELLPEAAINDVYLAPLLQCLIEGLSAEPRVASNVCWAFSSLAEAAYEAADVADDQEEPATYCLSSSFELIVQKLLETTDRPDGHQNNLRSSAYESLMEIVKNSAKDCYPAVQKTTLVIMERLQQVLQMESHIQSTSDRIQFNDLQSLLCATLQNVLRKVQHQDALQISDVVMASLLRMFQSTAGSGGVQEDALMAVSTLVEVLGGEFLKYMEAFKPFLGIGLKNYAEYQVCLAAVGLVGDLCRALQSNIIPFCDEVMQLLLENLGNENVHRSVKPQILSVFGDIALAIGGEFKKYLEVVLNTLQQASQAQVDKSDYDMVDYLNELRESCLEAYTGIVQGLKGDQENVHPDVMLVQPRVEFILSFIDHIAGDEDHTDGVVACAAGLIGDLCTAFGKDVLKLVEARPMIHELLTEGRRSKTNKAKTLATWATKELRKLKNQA
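FRET biosensor Rango (snurportin 1 IBB between N-terminal EYFP and C-terminal Cerulean), 50 nM in PBS/1 mM DTT/0.02% Tween-20/0.1% BSA, preincubated 5 min RT with compound; 0.125 microM importin beta added, 45 min RT, CFP/YFP FRET ratio read.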
Starred values were filed as active, the others as inactive; ? = inconclusive; / = no result given; & = joins results of further samples.

item	SMILES	miR-21 FLuc	Rango dissoc inh	GLA inh pH 4.5	Rango complex inh
1	CCOC(=O)NC(=O)/C(N=Nc1ccc(C(F)(F)F)cc1)=C(\C)O	-11%	1%	7	-0.4%
2	COc1cc(CNC2CCCCC2)c(Br)cc1OC1CCCC1	0%	7%	-14	-2.8%
3	O=C(NC(=S)Nc1ccc2c(c1)C(=O)c1ccccc1C2=O)c1ccc(F)cc1	-60%	/	4	/
4	Cc1cc(C)c(S(=O)(=O)Nc2cccc(C(=O)O)c2)cc1S(=O)(=O)Nc1cccc(C(=O)O)c1	/	-1%	/	-3.0%
5	c1ccc2c(c1)OCC(c1nnc3sc(-c4cnccn4)nn13)O2 (centres undefined)	-17%	-14%	-2	-0.8%
6	O=C(CSCCO)Nc1ccc([N+](=O)[O-])cc1	0%	-13%	-20	-0.2%
7	CN(C[C@H](CC1CCCCC1)N(C[C@H](Cc1ccccc1)N(CCc1ccccc1)N=O)N=O)N=O	-1%	0%	0	?
8	CC(CCc1ccccc1)NC(=O)COC(=O)c1ccccc1Br (centres undefined)	-18%	22%	/	3.3%
9	O=C(N/N=C/c1ccc(Br)cc1)c1ccc(Br)o1	-78%	8%	-16	-3.9%
10	CCOc1ccccc1Cn1c(=O)sc2ccccc21	-4%	3%	-1	1.8%
11	Cc1ccc(S(=O)(=O)N(Cc2ccc(Cl)cc2)c2ccccc2C(=O)NCc2cccnc2)cc1	2%	4%	-5	-2.1%
12	Cc1ccc(S/C(=N\S(=O)(=O)c2ccc(Cl)cc2)c2ccccc2)cc1	-2%	-4%	-1	0.2%
13	CN(CCC#N)CC(=O)Nc1ccc(S(N)(=O)=O)cc1	5%	-17%	7	-4.8%
14	CC1Oc2ccccc2N(CC(=O)N(Cc2ccccc2)Cc2ccccn2)C1=O (centres undefined)	0%	15%	0	-0.9%
15	Cc1ccnc(NC(=O)CNC(=O)c2ccc3c(c2)OCO3)c1	-9%	3%	/	0.9%
16	CCNS(=O)(=O)c1ccc(CCC(=O)N2CCOCC2)cc1	-6%	-3%	/	1.8%
17	CSc1nc2ccc(S(=O)(=O)N(C)C)cc2s1	-4%	-18%	-13	5.8%
18	Cc1ccc2[nH]c(=O)c3cc(C(=O)NCC4CCCO4)sc3c2c1 (centres undefined)	0%	-6%	12	-2.6%
19	Nc1ccccc1-c1nnc2n1CCCCC2	5%	9%	/	-2.0%
20	COC(=O)CCCC(=O)N1CCCC(C(=O)c2ccc(OC)cc2C)C1 (centres undefined)	-6%	3%	-1	-1.6%

Later entries
item	SMILES	miR-21 FLuc	Rango dissoc inh	GLA inh pH 4.5	Rango complex inh
21	CCc1cc(C(=O)NNC(=O)CCN2CCN(c3ccccc3)CC2)sc1C	-3%	-3%	/	?
22	O=C(Nc1cc(F)ccc1F)C1CCCO1 (centres undefined)	-2%	10%	-10	0.1%
23	Cc1ccccc1-c1nc(P(=O)(c2ccccc2)c2ccccc2)c(N2CCOCC2)o1	4%	16%	-3	1.5%
24	CCN(c1ccccc1)S(=O)(=O)c1ccc(C(=O)Oc2ccc(C(C)=O)cc2)cc1	-6%	11%	-1	0.1%
25	CCOc1ccccc1C(=O)Nc1nnc(COC)s1	-21%&-22%	-5%	-4	6.9%
26	CC(=O)NC(CC(=O)N(C)Cc1cccc(Cl)c1Cl)c1ccccc1 (centres undefined)	4%	-4%	3	-2.8%
27	O=C(Nc1cccc(S(=O)(=O)N2CCCCCC2)c1)C1CC(=O)N(c2ccc3c(c2)OCCO3)C1 (centres undefined)	/	2%	/	-3.2%
28	Cc1ccc(Nc2cc(=O)[nH]c(=O)[nH]2)cc1Cl	-1%	-8%	1	0.5%
29	Cc1cccc(-c2nnc(-c3cccc(NC(=O)Cc4cccs4)c3)o2)c1	-17%	1%	-8	1.8%
30	O=C(O)CC1Oc2ccc(Cl)cc2NC1=O (centres undefined)	-6%	-1%	-5	-1.4%
31	CCc1ccccc1NC(=O)COc1cccc2ccc(C)nc12	12%	-13%	-7	-0.9%
32	CCCn1c(SCC(=O)Nc2ccc3c(c2)CCC3)n[nH]c1=O	0%	10%	0	2.8%
33	CC1CCCCN1CCNC(=O)C1CCN(S(=O)(=O)c2cccc3nsnc23)CC1 (centres undefined)	0%	-2%	/	-1.2%
34	CCOC(=O)C(NC(C)=O)(Nc1ccc(F)cc1)C(F)(F)F (centres undefined)	-6%	-9%	3	-2.5%
35	Cc1cc(OC(=O)c2ccccc2[N+](=O)[O-])c([N+](=O)[O-])c(=O)[nH]1	1%	12%	/	4.1%
36	CCOC(=O)N1CCN(C(=O)C(C)n2nc(C)n3c(cc4sccc43)c2=O)CC1 (centres undefined)	16%	7%	-3	-0.7%
37	CCOc1cc(C(=O)NCCOC)ccc1OC	-11%	1%	4	-1.9%
38	COc1ccccc1-n1cnc2sc(-c3ccccc3)cc2c1=O	-31%	34%	5	-1.0%
39	O=C(c1cccs1)N1CCN(C2CCN(Cc3ccccc3)CC2)CC1	-5%	4%	-4	-2.1%
40	CC(=O)C1=C(O)C(=O)N(CCC(=O)O)C1c1cccc(F)c1 (centres undefined)	-9%	-11%	-1	1.2%

Remaining list, next part
item	SMILES	miR-21 FLuc	Rango dissoc inh	GLA inh pH 4.5	Rango complex inh
41	O=C(Cc1ccc(F)cc1)N1CCOCC1	-10%	-5%	/	-3.7%
42	O=C(CSCc1ccc(F)cc1)Nc1ccc(N2CCOCC2)cc1N1CCOCC1	/	9%	/	-0.4%
43	COc1ccccc1CN(C)C(=O)C(c1ccccc1)c1ccccc1	21%	-7%	/	0.7%
44	O=C(CCC(=O)NC12CC3CC(CC(C3)C1)C2)NC1CCCCC1	1%	4%	/	0.1%
45	O=C(NCCCn1ccnc1)C(=O)Nc1ccccc1	-19%	-1%	8	-2.1%
46	O=C(COC(=O)c1cc([N+](=O)[O-])ccc1N1CCOCC1)NCc1ccc(Cl)cc1Cl	1%	-9%	/	?
47	O=C(NCC1CCCO1)c1cccc(N2CCCC2=O)c1 (centres undefined)	-10%	1%	2	3.7%
48	C=CCn1c(=O)c(C(C)=O)cn(N(C)c2ncc(C(F)(F)F)cc2Cl)c1=O	-1%	-12%	8	-0.5%
49	C(=C\n1nnc2ccccc21)/c1ccc[nH]1	/	?	/	?
50	O=c1[nH]c(SCc2n[nH]c(=S)n2-c2ccccc2)nc2sc3c(c12)CCC3	-16%	6%	0	2.0%
51	COc1ccc(S(=O)(=O)Nc2ccc(-n3cnnn3)cc2)cc1[N+](=O)[O-]	/	-18%	/	1.0%
52	Cc1cc(C)c(NC(=S)NC(NC(=O)c2ccccc2)C(Cl)(Cl)Cl)c(C)c1 (centres undefined)	?	-4%	1	0.7%
53	O=S1(=O)NC[C@]23C[C@H](c4ccc(F)cc4)[C@@H](C[C@@H]21)O3	-4%	-5%	4	1.1%
54	OCCC1CN(Cc2cccn2-c2ccccn2)CCN1C1CCCC1 (centres undefined)	-3%	13%	4	1.8%
55	CCn1c(N)c(C(=O)NCc2ccc3c(c2)OCO3)sc1=S	-5%	-2%	-5	-1.5%
56	O=S(=O)(/N=C(/Nc1ccccc1F)c1ccccc1)c1ccccc1	-10%	5%	1	-0.7%
57	C=CCNC(=S)N/N=C/c1ccc(C(F)(F)F)cc1	20%	?	2	-1.3%
58	CC(C)CNc1ncnc2[nH]ncc12	/	-1%	/	0.3%
59	O=C(Nc1ccc2c(c1)OCO2)c1cnc2n(c1=O)CCS2	-47%	1%	0	0.7%
60	Cc1cccc(C)c1NC(=S)N1CCCCCC1	7%	-4%	/	-2.8%

(list continues)
item	SMILES	miR-21 FLuc	Rango dissoc inh	GLA inh pH 4.5	Rango complex inh
61	C=CCn1c(SCC(=O)Nc2nc3ccccc3s2)nnc1-c1ccccc1O	12%	-2%	4	4.3%
62	COc1ccc(-c2[nH]ncc2/C=N\NC(=O)c2ccc(Br)o2)cc1OC	-10%	8%	/	-0.6%
63	Nc1ccc2oc(C3CCCCC3)nc2c1	-40%	6%	6	-2.8%
64	CN1CCC(=O)N([C@H](COc2ccccc2)Cc2ccccc2)CC1	-7%	2%	/	1.4%
65	O=C(c1cc(COc2ccc(F)cc2F)on1)N1C[C@H]2CC[C@H]1C2	-60%	0%	/	-2.7%
66	CC(C)(C)c1ccc(OCCCNC2CCCC2)cc1	-13%	-7%	0	1.3%
67	CCOC(=O)c1ccccc1NC(=O)Nc1ccc(OC)c(OC)c1	0%	24%	-1	-0.2%
68	O=C(NCCc1ccccc1)C(=O)NCC1OCCCN1S(=O)(=O)c1cccs1 (centres undefined)	-4%	-15%	/	0.0%
69	CCOc1ccc(NC(=O)C2CCN(C(=O)C3CC(=O)N(c4ccc(C)cc4)C3)CC2)cc1 (centres undefined)	-3%	-3%	/	0.7%
70	O=C(O)CSCCn1cccn1	1%	-5%	12	-3.0%
71	CCCCCCN(C(=O)CCCCCN1C(=O)NC(c2ccc([N+](=O)[O-])cc2)C(C(=O)OCc2ccccc2)=C1C)C(C(=O)NCCCC)C1CCCCC1 (centres undefined)	/	-9%	/	-2.6%
72	Fc1ccc(Br)cc1/C=N/n1cnnc1	-3%	-5%	7	2.1%
73	Nc1nc(SCc2ccccc2Cl)ns1	-34%	-5%	-7	1.2%
74	NS(=O)(=O)c1cccc(NC(=O)CSc2n[nH]c(-c3cccs3)n2)c1	/	-17%	/	3.6%
75	CN(C)c1ccc(Nc2c3c4c(cccc4n(C)c2=O)C(=O)c2ccccc2-3)cc1	-8%	4%	/	1.7%
76	CCc1cccc(C)c1NC(=O)CCCSc1nc2ccccc2s1	4%	4%	0	-0.2%
77	Cc1cc(NC(=O)c2cc(-c3ccccc3)on2)no1	2%	4%	3	-2.0%
78	COc1ccc(-c2cc(C(F)(F)F)nc(SCC(=O)NCc3cccs3)n2)cc1OC	3%	4%	5	?
79	COc1ccc(-c2ccc3c(c2)C2CC3CCN2C(=O)C(C)(C)C)cc1 (centres undefined)	/	-16%	/	-2.0%
80	NS(=O)(=O)c1ccc(CNS(=O)(=O)c2ccc3ccccc3c2)cc1	-2%	1%	/	0.3%

(cont.)
item	SMILES	miR-21 FLuc	Rango dissoc inh	GLA inh pH 4.5	Rango complex inh
81	O=C(NCCN1CCOCC1)C1CCN(S(=O)(=O)N2CCCC2)CC1	0%	4%	8	0.3%
82	Cc1ncc(COCc2ccccc2)c(CO)c1OCc1ccccc1	/	-1%	/	2.2%
83	COc1ccc(N=C2C(=O)Nc3ccccc32)cc1	-19%	3%	-6	-3.8%
84	CC(=O)Nc1ccc(S(=O)(=O)NC(C(=O)O)C(C)C)cc1 (centres undefined)	/	9%	/	-4.0%
85	CC(C)N1C/C(=C/c2cccnc2)C(=O)/C(=C/c2cccnc2)C1	?	5%	-6	-2.3%
86	c1ccc(Cn2nc(-c3ccccc3)nc2-c2ccccc2)cc1	-66%	?	-3	-3.1%
87	Cc1ccc(NC(=O)c2cc3ccccc3oc2=N)cc1	-70%	0%	/	-1.3%
88	O=C(CNC(=O)c1cccc(Cl)c1)N/N=C/C=C/c1ccccc1	0%	-3%	0	-1.0%
89	O=C(CCC(=O)Nc1ccc(F)cc1)N/N=C/c1cccs1	-18%	4%	/	-3.1%
90	COc1cc(CN2CCC(CO)(Cc3cccc(C(F)(F)F)c3)CC2)ccc1F	4%	0%	?	6.2%
91	O=C(NCCCN1CCCC1=O)C1CCC(CNS(=O)(=O)c2ccc(Cl)cc2)CC1 (centres undefined)	4%	-1%	/	-2.1%
92	Cc1cc(OCCCCn2ccnc2)cc(C)c1Cl	6%	-3%	-29	0.3%
93	Cc1ccc(NS(=O)(=O)c2ccc3c(c2)NC(=O)CCS3)c(C)c1	15%	10%	/	0.0%
94	CN(CC(=O)NCC(=O)Nc1ccc(F)c(F)c1F)C1CCS(=O)(=O)C1 (centres undefined)	/	-5%	/	-2.9%
95	O=C(CNC(=O)c1ccccc1F)NC1CC1	-14%	-5%	4	-1.2%
96	NS(=O)(=O)c1cccc(NC(=O)CSc2nnnn2-c2ccccc2)c1	-5%	-9%	5	-0.6%
97	Clc1cccc(-c2ccc3ncnc(NCc4cccnc4)c3c2)c1	/	1%	/	0.5%

3 of the entries above in order of their number in Rango complex inh, rising.
item	mol	Rango complex inh
83	COc1ccc(N=C2C(=O)Nc3ccccc32)cc1	-3.8%
87	Cc1ccc(NC(=O)c2cc3ccccc3oc2=N)cc1	-1.3%
90	COc1cc(CN2CCC(CO)(Cc3cccc(C(F)(F)F)c3)CC2)ccc1F	6.2%

The list is partial; the hit share may differ from the screen's.
